Compound activity deposited in PubChem BioAssay by several laboratories.
Mtb bLac sens: beta-lactam sensitization of Mtb H37Rv, H37Rv; 0.27% of 330,000 active; inhibition, % at 25 µM; M. tuberculosis H37Rv growth with meropenem, percent inhibition; hits of this screen are not shown here;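 active = about 74% or more and at least 40 points above the plate without the antibiotic, then above 30% in a dose series; inconclusive = first-round hits that could not be retested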;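 note: growth measured after seven days incubation then overnight dye step; 0% = bacteria only wells and 100% = bacteria with antibiotic; twin plates without the antibiotic show which effects depend on it; some results filed as inactive read as strong as hits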
Mtb H37Rv: M. tuberculosis H37Rv growth inhibitors, H37Rv strain (AID 1626); inhibition, % at 10 µM; hits with a dose series show IC50 in µM; M. tuberculosis H37Rv growth inhibition; higher % means a stronger effect; 0.95% of 220,000 active;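 active = confirmed in a dose series; inconclusive = inhibition above 80% but not taken into the dose series; inactive = below 80% or under 30% at every dose of the series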;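 note: bacteria incubated seven days before Alamar blue readout; 0% = bacteria only wells and 100% = bacteria with antibiotic wells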
RecA splice inh: Mtb RecA intein splicing inhibitors, primary screen, biochemical, fluorescence, HTS | 0.75% of 290,000 active | inhibition, %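 (about 9 µM by stock and volumes)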 | Protein RecA (Mycobacterium tuberculosis (strain ATCC 25618 / H37Rv)), P9WHJ3 | cell-free RecA intein splicing | AID 2221, 2009; in the data active = inhibition above about 30%; inconclusive = no clear call, values can overlap the other calls;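 note: 0% = vehicle wells and 100% = reference inhibitor control wells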
Target sequence (P9WHJ3 whole entry, looked up, canonical isoform): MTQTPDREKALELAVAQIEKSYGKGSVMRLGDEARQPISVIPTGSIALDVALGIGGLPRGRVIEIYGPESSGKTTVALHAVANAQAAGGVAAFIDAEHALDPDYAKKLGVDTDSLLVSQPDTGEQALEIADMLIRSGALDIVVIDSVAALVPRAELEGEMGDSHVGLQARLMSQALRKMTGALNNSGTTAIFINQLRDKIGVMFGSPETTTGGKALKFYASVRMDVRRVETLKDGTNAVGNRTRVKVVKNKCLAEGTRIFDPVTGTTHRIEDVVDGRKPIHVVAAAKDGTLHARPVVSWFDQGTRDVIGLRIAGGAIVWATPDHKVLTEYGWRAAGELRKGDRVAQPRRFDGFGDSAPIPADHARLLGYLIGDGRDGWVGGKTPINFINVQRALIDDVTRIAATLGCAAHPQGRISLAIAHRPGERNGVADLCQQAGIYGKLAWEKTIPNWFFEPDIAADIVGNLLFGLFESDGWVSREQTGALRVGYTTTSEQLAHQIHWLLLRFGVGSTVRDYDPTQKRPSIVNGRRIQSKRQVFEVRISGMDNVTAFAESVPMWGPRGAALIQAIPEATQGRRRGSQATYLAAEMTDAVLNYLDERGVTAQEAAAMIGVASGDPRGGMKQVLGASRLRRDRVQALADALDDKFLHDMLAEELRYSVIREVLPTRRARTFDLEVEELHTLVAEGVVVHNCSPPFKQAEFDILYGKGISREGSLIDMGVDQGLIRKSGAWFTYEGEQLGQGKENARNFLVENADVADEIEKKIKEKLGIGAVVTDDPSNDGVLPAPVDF
Arbovirus anti: antivirals against arbovirus infection, primary screen, cell-based, full library, 10K replicate subset. arbovirus infection cell-based antiviral screen. inhibition, % at 10 µM. 0.37% of 200,000 active. AID 1251, 2008;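 active = inhibition from about 30%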;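 note: bluetongue infection of BSR cells; cell survival read as ATP light after 72 h; 0% = infected wells without compound and 100% = uninfected wells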
YopH PTP inh: YopH tyrosine phosphatase inhibitors, primary screen, biochemical, fluorescence Ex485/Em525. inhibition, %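 (about 10 µM by stock and volumes)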. 0.16% of 140,000 active;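 active = inhibition of 50% or more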;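 note: controls were vehicle for no effect and minimum signal wells for full effect; inactives centre near -20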
Arbovirus anti repeat: also measured in Arbovirus anti; calls as there; inhibition, %; measured here: 10K subset replicate screen; many hits read low in the repeat;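 first of two repeat runs on a subset; 0% = infected and 100% = uninfected wells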
Active calls of the source: *; ? = inconclusive; · = not tested or not shown. An excerpt. The share of hits here may be higher or lower than overall.

SMILES	Mtb bLac sens	Mtb H37Rv	RecA splice inh	Arbovirus anti	YopH PTP inh	others
CC[C@@H](C)C(NC(=O)OC(C)(C)C)c1cn([C@@H](Cc2ccc(O)cc2)C(=O)N2CCN(C(=O)OC(C)(C)C)CC2)nn1 (stereo not given in full)	-2	9%	-2.3	8	·
O=C(Nc1nc2ccccc2s1)c1ccc(OCC2CCCO2)cc1 (stereo not given)	72	10%	-0.2	31*	-13
O=C(CCC(=O)N/N=C/c1cc(Cl)cc(Cl)c1O)NCc1ccccc1	-3	-17%	-3.4	-19	·
COc1ccc(CCNC(=O)CSc2nn(-c3ccccc3)c(=S)s2)cc1	-3	-5%	-18	·	·
CC(C)C(=O)Nc1ccc2nn(-c3ccc(F)cc3)nc2c1	-2	·	1.9	·	·
Cc1ccc(OCCNC(=O)CCc2nc3sc4c(c3c(=O)[nH]2)CCCC4)cc1	-3	·	-2.1	·	·
CCOC(=O)c1c(C)[nH]c(C)c1S(=O)(=O)N1CCN(c2cccc(C)c2)C(C)C1 (stereo not given)	1	·	2.4	·	·
CC1Cc2ccccc2N1C(=O)C1CCCN1S(=O)(=O)c1ccc(Cl)cc1 (stereo not given)	2	-7%	1.0	-2	-13
O=C1N=C(N2CCOCC2)S/C1=C\C=C/c1ccccc1	5	-3%	1.1	-4	-26
O=C(COC(=O)c1cc[n+]([O-])cc1)Nc1cccc(Cl)c1Cl	4	6%	3.1	6	·
N#Cc1cn(CC(=O)NCc2cccnc2)c2ccccc12	-4	-8%	-0.1	12	-19
COc1cc(/C=N/NC(=O)CCn2c3ccccc3c3ccccc32)ccc1O	-5	4%	3.4	3	-16
CN(CC(=O)Nc1ccc(Cl)c(C(F)(F)F)c1)C(=O)c1ccc(N2CCOCC2)c([N+](=O)[O-])c1	5	·	3.6	·	·
Cn1nc(C(C)(C)C)cc1C(=O)NCc1ccc(N2CCCC2=O)cc1	-8	-1%	1.5	7	-49
CC(Oc1ccc2ccc(=O)oc2c1)C(=O)NCCN1CCOCC1 (stereo not given)	4	·	-3.8	·	·
C/C=C/C(=O)OCC(=O)NC(=O)NC(C)C	-17	10%	1.1	2	-57
COc1ccccc1OCCSc1nnnn1C1CCCCC1	-10	0%	2.4	-8	-23
O=C1Nc2ccc(Cl)cc2C12Nc1ccccc1-c1nnc(SCc3ccccc3F)nc1O2 (stereo not given)	-3	4%	0.5	-2	-7
CCC(C)NC(=O)C1(C)CCC(=O)N1Cc1ccccc1OC (stereo not given)	-4	-2%	1.2	5	-18
CC(C)(C)OC(=O)NCCNC(=O)c1cccs1	-1	-9%	-0.9	·	·
O=C(CN(CC1CCCO1)C(=O)CNS(=O)(=O)c1ccc(F)cc1)NC1CCCC1 (stereo not given)	2	·	-1.3	·	·
O=C(N/N=C/c1ccco1)c1ccn[nH]1	0	-4%	0.4	-3	·
COc1cc(/C=N/NC(N)=O)c(Br)cc1OCC(=O)Nc1ccccc1C	-2	-11%	-1.4	1	-29
Cc1ccccc1-n1ncc2c1CC(C)(C)CC2NC(=O)CCC(F)(F)F (stereo not given)	0	·	-0.3	·	·
COc1cccc(N2CCN(C(=S)Nc3ccc(F)cc3)CC2)c1	-1	·	16	·	·
COc1ccc(OC)c(NC(=O)CSc2nncc(=O)n2N)c1	7	·	-7.7	·	·
COc1ccc(CCN=C(N)NS(=O)(=O)c2ccc(C)c(C)c2)cc1OC	-2	·	-1.0	·	·
CCNc1nc(SCCOc2ccccc2)nc(N(C)C)n1	5	4%	-1.7	5	-22
COc1ccc(CNc2cc(C)ccc2C)c(OC)c1OC	21	7%	2.4	-2	-28
O=C(Nc1ccc(Oc2cccnc2)nc1)c1ccc(C(F)(F)F)cc1	1	16%	-1.4	·	·
CCOC(=O)Cn1c(=NC(=O)c2sc3ccccc3c2Cl)sc2cc(S(N)(=O)=O)ccc21	10	1%	-5.2	-5	-7
CC(C)(C)OC(=O)N[C@@H](CC(=O)OCc1ccccc1)C(=O)O	-11	0%	0.4	2	·
CC(=O)N(CCC(c1ccccc1)c1ccco1)Cc1cccs1 (stereo not given)	-6	6%	9.1	-11	7
CCCNC(=O)NC(=O)COC(=O)/C=C/c1cc(Br)ccc1F	-3	-1%	-2.1	3	·
CC1CCCN(CCC(=O)Nc2ccc(F)c(F)c2)C1 (stereo not given)	2	·	-0.1	·	·
COCCNCc1ccccc1	-13	2%	0.8	-2	-18
COc1ccc(S(=O)(=O)NCc2ccc3c(c2)cc(C)n3C)cc1	10	16%	4.3	2	-17	Arbovirus anti repeat=-1
Cc1cccc(N(CC(=O)NC(C)C)C(=O)CCC(=O)Nc2nccs2)c1	-2	·	-2.0	·	·
O=C(Nc1ccccc1)N1CCCC(c2nc(-c3cccs3)no2)C1 (stereo not given)	-8	-4%	1.3	1	-27
Cc1cc(=O)oc2c3c(cc(OCC(=O)NCCC(=O)N[C@@H](C)C(=O)O)c12)OC(C)(C)CC3	-6	·	3.8	·	·
O=C(Nc1ccc2c(c1)OCO2)c1noc2c1CCCCC2	11	1%	1.1	-9	-45
O=S(=O)(NCc1cccs1)c1ccccc1Cl	-1	·	2.1	·	·
Cc1ccc(C(=O)N/N=C/c2ccc(S(=O)(=O)O)o2)c(Cl)c1	-3	0%	1.5	3	-5
CCOC(=O)C(C)n1cnc2sc3c(c2c1=O)CCC3 (stereo not given)	0	0%	-3.5	17	-51	Arbovirus anti repeat=-2
COc1ccc(C(=O)NC2CC2)cc1OC1CCN(Cc2ccc(F)cc2F)CC1	?	·	3.0	·	·

Retrieved by structure from the list above:
SMILES	Mtb bLac sens	Mtb H37Rv	RecA splice inh	Arbovirus anti	YopH PTP inh	others
CC[C@@H](C)C(NC(=O)OC(C)(C)C)c1cn([C@@H](Cc2ccc(O)cc2)C(=O)N2CCN(C(=O)OC(C)(C)C)CC2)nn1 (stereo not given in full)	-2	9%	-2.3	8	·
COc1ccc(S(=O)(=O)NCc2ccc3c(c2)cc(C)n3C)cc1	10	16%	4.3	2	-17	Arbovirus anti repeat=-1
Cc1ccc(OCCNC(=O)CCc2nc3sc4c(c3c(=O)[nH]2)CCCC4)cc1	-3	·	-2.1	·	·

Additional entries:
SMILES	Mtb bLac sens	Mtb H37Rv	RecA splice inh	Arbovirus anti	YopH PTP inh	others
O=C(c1cccc(N2CCCC2=O)c1)N1CCOCC1	3	-7%	2.2	1	-26
COc1ccc(/C=N/NC(=O)c2cccc(OC(F)(F)C(F)F)c2)c(OC)c1OC	-1	1%	-0.2	2	-26
O=C(C1=C[C@@H](c2csc3ccccc23)C[C@@H](OCc2ccc(CO)cc2)O1)N1CCOCC1	0	5%	0.6	6	·
CC(C)CC(=O)NCCc1ccncc1	-1	0%	0.4	5	-5
Cc1cc(C)n(CC(=O)NC2CCCN(Cc3ccc(Cl)cc3)C2)n1 (stereo not given)	-4	·	-7.1	·	·
Cc1ccc(Nc2nnc(SCC(=O)NC3CCCc4ccccc43)s2)cc1 (stereo not given)	-6	4%	-1.5	-8	-55
Cc1ccc(NC(=O)c2ccc(OC(=O)c3cc4ccccc4o3)cc2)cc1	99	72%	1.1	-3	-18
Cc1ccc(S(=O)(=O)Nc2cc(=O)[nH]c(SCC(=O)Nc3ccccc3Cl)n2)cc1	·	-4%	·	4	·
COc1ccc(CNS(=O)(=O)c2ccc(C)cc2)cc1	-7	18%	0.8	·	·
CC1=C(C(=O)Nc2ccccc2C(F)(F)F)C(c2sccc2C)NC(=S)N1 (stereo not given)	7	4%	-1.3	-4	·
C=C(C)CN(CC)C(=O)CCc1nnc(CCCc2ccccc2)o1	3	0%	4.3	2	·
O=C(NCc1ccc2c(c1)OCO2)C(C(=O)c1ccccc1)n1cc(Cl)ccc1=O (stereo not given)	1	11%	0.9	5	-2
O=C(CSc1nc(Nc2ccccc2)nc(N2CCOCC2)n1)NC1CCCCC1	-2	·	-1.2	·	·
COc1cc(NCc2ccccc2O)c2ncccc2c1	·	-2%	0.8	·	·
COc1ccc(-n2cc(CNC3CCC(O)CC3)c(-c3cccc(F)c3)n2)cc1 (stereo not given)	0	7%	0.5	-15	·

Of the compounds above, 2 contain bromine.
SMILES	Mtb bLac sens	Mtb H37Rv	RecA splice inh	Arbovirus anti	YopH PTP inh	others
COc1cc(/C=N/NC(N)=O)c(Br)cc1OCC(=O)Nc1ccccc1C	-2	-11%	-1.4	1	-29
CCCNC(=O)NC(=O)COC(=O)/C=C/c1cc(Br)ccc1F	-3	-1%	-2.1	3	·

The results go on.
SMILES	Mtb bLac sens	Mtb H37Rv	RecA splice inh	Arbovirus anti	YopH PTP inh	others
O=c1[nH]c(=S)[nH]nc1Cc1ccccc1	-2	-8%	-1.2	14	-46	Arbovirus anti repeat=-2
CCN(Cc1nc(-c2cccc(C)c2)no1)C(=O)c1ccc2c(c1)OCO2	4	·	5.6	·	·
Oc1ccc(Br)cc1CNc1ccccn1	-2	3%	1.4	·	·
Cc1c(CCCC(=O)O)sc(N)c1C(=O)c1cccc(C(F)(F)F)c1	-8	-7%	0.9	·	·
COc1cc(C(CCN2CCCCC2)c2c(OC)cc(OC)c3c(C)cc(=O)oc23)cc(OC)c1OC (stereo not given)	-12	-4%	-1.7	·	·
CC(C)Oc1ccc(C(=O)N2CCCc3ccccc32)cc1	19	-5%	-1.4	-3	-40
CN(CC(=O)Nc1cccc(F)c1)C(=O)c1cc([N+](=O)[O-])ccc1N1CCOCC1	2	·	0.9	·	·
O=C(O)CCCC(=O)N(Cc1ccccc1)Cc1ccccc1	-21	-14%	-2.9	0	-45
C/C(=N\NC(=O)c1cccc(Br)c1)c1cccc(NC(=O)c2ccc(C)o2)c1	44	-3%	0.2	-4	-46
Cc1cccc(CSC2=CS(=O)(=O)c3ccccc3N2)c1	-4	-7%	-0.8	4	-23
CCOCCc1nnc(NC(=O)Cc2ccc(Br)cc2)s1	44	6%	-3.6	3	-7
CCOC(=O)CNC(=O)CSc1nc(-c2ccc(OC)cc2)ns1	100	?	-1.9	19	·
O=C(O)c1c[nH]c(=O)c2ccccc12	-3	11%	1.7	20	·
CNc1ncc(-c2nnnn2-c2ccccc2)c(-c2ccccc2)n1	-5	-9%	7.9	·	·
COc1cc(C(=O)Nc2cccc(-n3cnnn3)c2)cc(Cl)c1OC	-1	·	2.2	·	·
O=C(CNC(=S)N(CCCN1CCOCC1)Cc1cccs1)NCc1ccc(Cl)cc1	2	·	3.0	·	·
NC(=O)C1=C[C@@H](c2coc3ccccc3c2=O)C[C@@H](OCCCCO)O1	-4	-8%	-0.5	5	·
COc1ccc(OC)c(S(=O)(=O)NC2CC(=O)N(c3cccc(F)c3)C2)c1 (stereo not given)	1	·	0.1	·	·
C=CCNCCCOc1ccc(Cl)cc1C(C)(C)C	·	13%	-1.4	-43	·
CCN(C(=O)COC(=O)CNC(=O)C12CC3CC(CC(C3)C1)C2)C1CCS(=O)(=O)C1 (stereo not given)	-6	-2%	0.2	3	-16
Cc1cc(C)c(O)c(N)c1	·	-4%	·	-2	·
CCC(c1nnnn1C1CCCC1)N1CCC(C(N)=O)CC1 (stereo not given)	1	-4%	0.0	17	·
Cc1cccc2nc(CSc3nc4ccccc4o3)cn12	-5	1%	-1.4	-2	-18
O=C(Nc1ncc([N+](=O)[O-])s1)c1ccccc1Br	-4	·	15	·	·
NC(=O)c1ccccc1NC(=O)c1ccccc1F	-4	-2%	-1.2	1	-30
COCCn1c(CCc2ccccc2)n[nH]c1=S	-11	-5%	-0.7	-13	·
CN(C)C1C(=O)c2ccccc2C1=O	-5	-1%	1.1	-9	-30
Cn1c(NCc2ccccc2Cl)nc2ccccc21	0	-1%	4.6	2	·	Arbovirus anti repeat=-3
Cc1cc2nc(N3CCN(C(=O)c4ccco4)CC3)sc2cc1C	6	·	0.3	·	·
CC1(C)CC(=O)N(CC(=O)O)c2ccccc2S1	-2	-3%	·	1	-55
Cc1ccc(N2CCN(C(=S)c3ccc(-c4ccccc4[N+](=O)[O-])o3)CC2)cc1	5	-5%	1.1	·	·
Cc1cc(NC(=O)c2cccnc2)ccc1Br	-3	·	1.5	·	·
O=C(c1ccco1)N1CCN(c2nc(C(F)(F)F)nc3c2nnn3Cc2ccccc2)CC1	9	10%	17	-10	1
COc1ccc(N2CCN(CC(=O)c3ccc(Cl)cc3)CC2)cc1	?	·	-3.0	·	·
CC1(C)Cc2c(oc3ncn4ncnc4c23)CO1	-2	-8%	-0.8	2	-28
Cc1ccc(NC(=O)C2CCCN2S(=O)(=O)c2cccc3cccnc23)c(C)c1 (stereo not given)	-7	·	3.1	·	·
CCN1CCc2nc3sc(C(=O)N4CCc5ccccc5C4)c(N)c3cc2C1	-1	·	0.8	·	·
COc1ccc(OC)c(C(=O)Cn2nnc3ccccc3c2=O)c1	-9	4%	-5.9	2	-39
C=CCOC(=O)C1=C(C)NC2(O)c3ccccc3C(=O)C12O (stereo not given)	2	6%	9.0	-5	78*
